# ClpP mod: qHTS Assay for Activators of ClpP; AID 651965, 2013; Potency, µM (top dose mostly 57.5 µM), inactives show at the highest dose activity change, negative = active; 340,000 compounds, 1.9% hits; ATP-dependent Clp protease proteolytic subunit (Bacillus subtilis (strain 168)), P80244; purified B. subtilis ClpP, FRET peptide cleavage, 20 min; active = well fitted falling curve with a large enough effect; inconclusive = small, poorly fitted or top-dose-only effect; inactive = no such curve, though single readings can be large or run the other way; note: potency is the fitted concentration of half-maximal effect; the source files actives as falling curves though it sought activators and does not explain the sign; nearly all actives have a fitted effect of over 65% in size; many hits overshoot -100%
# Target sequence (P80244 whole entry, looked up): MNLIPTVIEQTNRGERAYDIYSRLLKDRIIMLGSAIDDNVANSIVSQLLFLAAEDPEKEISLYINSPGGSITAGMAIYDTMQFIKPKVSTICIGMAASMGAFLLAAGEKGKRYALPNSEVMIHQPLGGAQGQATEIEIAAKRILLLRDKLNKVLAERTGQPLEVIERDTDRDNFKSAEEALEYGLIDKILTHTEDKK
#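 Buffer: 100 mM Tris/HCl pH8, 100 mM KCl, 0.05% low protease BSA, 2.5% glycerol, 0.01% Tween-20. ClpP 10 microg/mL final; 20 min RT; delta FRET normalized to ADEP and DMSO controls.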
# D2 ag: agonists of human D2 dopamine receptor (beta-arrestin). P14416. DiscoveRx PathHunter D2 beta-arrestin, luminescence, 90 min; 100% = 57 uM dopamine signal. activation, % (no concentration beside the values). 360,000 compounds, 0.084% hits; in the data active = activation above about 40%; inconclusive = about 15% to 40%; inactive = below about 15%; note: compound concentration not given in the record; the text of the record calls up to 30% inactive
# Target sequence (P14416 whole entry, looked up): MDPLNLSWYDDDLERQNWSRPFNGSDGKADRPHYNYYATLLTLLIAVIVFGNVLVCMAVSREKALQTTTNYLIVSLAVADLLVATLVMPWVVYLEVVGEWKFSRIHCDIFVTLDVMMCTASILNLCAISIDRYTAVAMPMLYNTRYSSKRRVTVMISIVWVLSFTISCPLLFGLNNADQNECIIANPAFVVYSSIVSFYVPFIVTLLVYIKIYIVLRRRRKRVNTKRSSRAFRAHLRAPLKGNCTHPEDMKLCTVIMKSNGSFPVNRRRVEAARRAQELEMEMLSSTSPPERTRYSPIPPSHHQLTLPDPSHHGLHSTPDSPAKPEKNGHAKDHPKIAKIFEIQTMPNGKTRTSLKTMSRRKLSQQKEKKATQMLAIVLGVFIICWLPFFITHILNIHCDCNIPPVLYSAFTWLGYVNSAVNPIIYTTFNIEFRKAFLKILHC
#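 DiscoveRx PathHunter D2 beta-arrestin cells (2,100/well) attached overnight, then compound-stimulated 90 min at 37 C in HBSS/10 mM HEPES/0.1% Tween-20 buffer; beta-galactosidase complementation read by luminescence after 1 h at ambient temperature. Dopamine 57 uM final (EC100) as control.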
# gsp antagonist: antagonizes gsp, the McCune-Albright syndrome mutation | gsp-mutant cells, cAMP HTRF, 30 min; control for the full effect not named in the record | Potency, µM (top dose mostly 76.9 µM), inactives show top-dose activity change, negative = inhibition, usual class: inhibitors | 340,000 compounds, 0.4% hits | AID 624288; active = falling curve of any shape with a large fitted effect; inconclusive = falling curve, mostly with a smaller effect; inactive = flat or rising curve; cell line not stated here;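 note: intracellular cAMP measured with PDE inhibitor Ro 20-1724 present during compound exposure; potency is the fitted concentration of half-maximal effect; % is set by controls: 0 for no effect and ±100 for the full control effect; nearly all actives have a fitted effect of over 65% in size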
#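 Cells, 2000/well, grown 16–24 h in DMEM 10% FBS with 0.5 mg/ml G418, then compounds plus […] (300 uM addition stock), 30 min at 37C. cAMP read by HTRF (cAMP-d2 and anti-cAMP antibody-K in lysis buffer) after 30 min RT.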
# gsp ag: activates gsp, the McCune-Albright syndrome mutation; gsp mutant cells, cAMP HTRF, 30 min; control for the full effect not named in the record; Potency, µM (titrated, usually from 76.9 µM), for the others: at the top dose activation (cAMP increase), hits mostly activators; 340,000 compounds, 0.13% hits; active = well fitted activation curve with a large enough effect; inconclusive = small, poorly fitted or top-dose-only effect, or another doubt; inactive = no such curve, though single readings can be large or run the other way; cell line not stated here;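 note: phosphodiesterase inhibitor Ro 20-1724 added with compounds to block cAMP breakdown; potency is the fitted concentration of half-maximal effect; nearly all actives have a fitted effect of over 60% in size; about a fifth of the inactives were tested at one dose only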
#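 Cells stably selected in G418 were plated at 2000/well, grown 16-24 hr, then given compounds in DMSO with the PDE inhibitor […] (300 uM solution added) for 30 min at 37C; cAMP was read by HTRF.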
# Sfp inh: Sfp phosphopantetheinyl transferase inhibition. Q9F4F7. Biochemical Sfp PPTase activity, qHTS. Potency, µM, for inactives: max response, negative = inhibition, usual class: inhibitors. 310,000 compounds, 3.5% hits; active = well fitted inhibition curve with a large enough effect; inconclusive = small, poorly fitted or top-dose-only effect, or another doubt; inactive = no such curve, though single readings can be large or run the other way;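 note: the enzyme is Sfp with the accession as filed and its product quenches rhodamine fluorescence; potency is the fitted concentration of half-maximal effect; 0% = enzyme reaction without inhibitor and -100% = no enzyme wells; top concentration of the series not given in the record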
#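 Sfp 15 nM + cpd, 15 min RT; start w/ rhodamine-CoA 5 uM, BHQ-2-YbbR 12.5 uM (final); 50 mM Hepes pH 7.6, 10 mM MgCl2, 0.01% NP-40, 0.01% BSA; read 525/598 nm at 0 and 30 min.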
# Menin-MLL FL inh: displaces fluorescein MLL peptide from human menin | FP activity change, % at 61.4 µM | 290,000 tested, under 10 active | AID 1766 | Fluorescence polarization, fluorescein-MLL peptide displacement from menin; inconclusive = falling polarisation curve, or a change in total fluorescence; inactive = total fluorescence flat and polarisation flat or rising; no compound was filed as active; the % refers to the polarisation; negative = inhibition;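 note: % of control where 0% means no effect; inhibitors lower the polarisation; unlabelled MLL peptide was the positive control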
# PINK1 expr mod: changes PINK1 expression | PINK1 immunofluorescence, high-content cytometry, 24 h | AID 624263 | Potency, µM (titrated, usually from 76.6 µM), for the others: at the top dose activation (PINK1 increase), hits mostly activators | 410,000 compounds, 0.2% hits; active = well fitted activation curve with a large enough effect; inconclusive = small, poorly fitted or top-dose-only effect; inactive = flat fitted curve, though single readings scatter; cell line not stated here;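 note: potency is the fitted concentration of half-maximal effect; % of control where 0% means no effect; nearly all actives have a fitted effect of over 65% in size; a mitochondrial uncoupler was the plate control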
#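 Measures PINK1 amount and localization on or inside mitochondria by immunofluorescence. Stable cells get compounds at 5 concentrations for 24 hours before fixation and staining; CCCP controls included.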
# Numbers without * were called inactive; ? = inconclusive; / = not tested or not shown; [ ] = dose if it differs, or a comment.
SMILES,ClpP mod,D2 ag,gsp antagonist,gsp ag,Sfp inh,Menin-MLL FL inh,PINK1 expr mod
COC(=O)c1cc(NC(=O)Cc2ccc(OC)cc2)cc(C(=O)OC)c1,0.0%,-1.9,-8%,-27%,3%,2.3,1.6%
Cc1ccc(Nc2nc(NCCCN3CCOCC3)nc(N)c2[N+](=O)[O-])cc1,-2.9%,-1.3,13%,-32%[inhibitor],18%,6.5,-2.3%
CC(C)[C@H](NC(=O)OC(C)(C)C)C(=O)N/N=C/c1cccc2nccnc12,-2.9%,-0.1,7%,-19%,16%,5.1,0.9%[38.3 µM]
CCC(C(=O)OC)n1cnc2c(nnn2-c2ccc(F)cc2)c1=O (stereo unspecified),-1.4%,-6.8,-1%,?,12%,1.6,3.0%
CCSc1nnc(SCC(=O)N2CCN(C(=O)c3ccco3)CC2)s1,0.2%,-1.0,9%,-1%[15.4 µM],-4%,/,4.8%
CC(C)C[C@H](NC(=O)c1[nH]cnc1C(=O)N[C@@H](Cc1ccccc1)C(=O)OCc1ccccc1)C(=O)OC(C)(C)C,-14%,-3.5,-1%,/,27%,-0.7,13%
CCN1CCN(CC(=O)N2N=CCC2c2ccccc2)CC1 (stereo unspecified),/,-5.6,9%,?,13%,1.0,-0.9%
COc1ccc(CNC(=O)Cn2cc(C(F)(F)F)ccc2=O)cc1OC,/,4.8,7%,-1%,15%,0.1,1.2%
CCCC(c1nnnn1Cc1ccco1)N1CCN(C2CCCC2)CC1 (stereo unspecified),1.0%,-3.0,6%,-11%,5%,/,-0.8%
O=C(Nc1nccs1)C1CCCN1/C=C/C(=O)C(F)(F)F (stereo unspecified),-4.3%,-10,-4%,?,2%,/,-1.7%
COc1ccc(CCNC(=O)C2CCCN(S(=O)(=O)c3cccc4nonc34)C2)cc1OC (stereo unspecified),?,0.7,-6%,-4%,-4%,-0.4,0.4%
CCCC(=O)Nc1c(-c2ccccc2)c(=O)c(C)nn1-c1ccccc1,/,3.9,3%,18%,-6%,3.0,2.4%
Cc1cc(=O)[nH]c(-c2ccccc2O)n1,-21%,-4.8,-10%,0%,6%,1.6,4.5%[38.3 µM]
Cc1csc(NC(=O)CSc2nnc(-c3ccoc3C)n2Cc2ccco2)n1,-3.1%,-0.5,-11%,2%,0%,12,-2.4%
COc1ccc(C(=O)Nc2ccc(Oc3ncnc4sc(-c5ccccc5)cc34)cc2)cc1OC,1.2%,1.7,5%,?,14%,6.5,12%
COCC1CCN(C(=O)c2ccc3oc(Cc4ccc(Cl)cc4)nc3c2)C1 (stereo unspecified),-3.5%,0.1,2%,-13%,/,/,1.0%
N#Cc1ccc(-c2nc3ccc(Br)cn3c2Cc2ccccc2)cc1,-13%,-12,/,32µM*,/,/,3.4%
Cc1ccc(C(=O)N(CC(=O)NC2CCCC2)c2ccc(F)cc2)s1,-7.5%,-0.5,5%,-6%[15.4 µM],11%,-15,0.0%
CN(C)c1ccc(CNn2cnnc2)cc1,-13%,-3.0,6%,9%,17%,2.0,/
COc1ccc(/C=N/NC(=O)c2ccc(CSc3nc(C)cc(C)n3)cc2)c(OC)c1OC,-13%,3.1,21%,2%,-21%,0.7,6.1%
CCN(CC)CCNC(=O)c1ccc(CS(=O)(=O)c2ccc(Br)cc2)o1,1.1%,0.7,5%,-46%[inhibitor],-7%,0.0,-0.3%
Cc1nnc(SCC(N)=O)n1CCc1ccccc1,1.1%,-5.0,6%,1%,17%,-1.8,2.0%
CC(C)CNC(=O)c1ccccc1NC(=O)CN(c1ccccc1)S(=O)(=O)N(C)C,/,-3.4,-6%,-1%[15.4 µM],7%,2.6,-1.1%
COc1ccc(-c2cnn(C3CCS(=O)(=O)C3)c2N)cc1 (stereo unspecified),-2.5%,-0.9,2%,25%,11%,3.8,2.5%
Cc1ccc2c(c1)[nH]c1c(=O)n(CCCN3CCOCC3)cnc12,28µM*,-1.2,-3%,0%,0%,4.0,1.0%
CC(=O)CC[C@@H](C)O[C@@H]1OC(C)[C@H](O)CC1O (stereo partly specified),-2.3%,-3.1,9%,-18%,/,/,0.7%
Cc1ccc(S(=O)(=O)N2CCOCC2)cc1NC(=O)Cn1ccsc1=N,-1.9%,0.3,-2%,-51%[inhibitor],9%,-6.9,2.9%
COc1ccccc1-c1cn[nH]c1-c1ccc(OCc2ccccc2F)cc1O,/,1.5,-18%,-1%[15.4 µM],14%,-0.3,-3.7%
C=CCN1C(=O)/C(=C\c2ccc(Cl)cc2)N=C1SCC(=O)NCCC,-1.7%,-1.9,-1%,0%,?,0.4,5.0%
CCOC(=O)C1CCN(c2nc3ccccc3nc2C(C#N)C(=O)OC(C)COC)CC1 (stereo unspecified),?,-7.4,-21%,-9%[15.4 µM],2%,17,-1.3%
Cc1ccnc(NC(=O)c2ccc([N+](=O)[O-])s2)c1,-5.4%,?,-1%,?,5%,-0.7,?
O=C(c1nc2ccc(Cl)cn2c1CN1CCCC1)N1CCc2ccccc2C1,-6.3%,-3.4,-13%,?,-4%,?,1.5%
COc1cc(CN2CCNC(=O)C2CC(=O)N(C)Cc2cccnc2)cc(OC)c1 (stereo unspecified),-2.5%,-2.7,-4%,0%,15%,-0.1,-0.9%
CCN1C(=O)[C@H]2[C@@H](c3ccc(OC)cc3)N[C@]3(CCCN(Cc4ccccc4)C3=O)[C@H]2C1=O,0.8%,-6.6,/,-5%,/,/,-0.7%
CC1(C)C(CC(=O)O)CC1C(=O)O (stereo unspecified),/,-3.5,13%,-21%,/,/,1.6%
Cc1ccc(OC(=O)Nc2ccccc2)cc1,/,1.0,5%,-12%,16%,-1.8,-1.0%
CC(NC(=O)c1ccco1)C(=O)N1CCN(C(c2ccccc2)c2ccccc2)CC1 (stereo unspecified),1.9%,-2.8,-11%,-45%[inhibitor],6%,/,4.4%
N/C(=N\OC(=O)c1cc(Br)ccc1Cl)c1cccnc1,/,?,2%,-4%,0%,-3.3,14%
Cc1c(N=Cc2ccncc2)c(=O)n(-c2ccccc2)n1C,-1.1%,-2.0,12%,-13%,-1%,3.0,-1.1%
COc1ccc(CNS(=O)(=O)c2ccc(F)cc2Br)cc1,0.2%,-1.9,0%,/,/,/,0.4%
CCCC(=O)NC(c1ccc(OCC)cc1)c1ccc(OC)c(OC)c1 (stereo unspecified),0.9%,-2.3,5%,-12%[15.4 µM],12%,0.0,-0.5%
Cc1nn(Cc2ccccc2)c(Cl)c1/C=N/NC(=O)CNc1cccc(C(F)(F)F)c1,4.2%,3.8,-5%,-15%,-15%,-1.2,1.7%
COCCN(C(=O)CCC(=O)Nc1ccccn1)C(C(=O)NC1CCCC1)c1ccc(OC)cc1 (stereo unspecified),-3.3%,-0.4,5%,-3%,12%,0.6,1.2%
CCN(CC)S(=O)(=O)c1cccc(C(=O)N2CCCc3ccccc32)c1,0.3%,-4.6,-2%,8%,7%,0.4,-0.5%
O=C(Cc1ccc(Br)cc1)Nc1cccc(S(=O)(=O)N2CCCCC2)c1,0.1%,0.7,/,0%,/,/,4.6%
Cc1ccc([N+](=O)[O-])c(OCCN2CCC(Cc3ccccc3)CC2)c1,-0.8%,-2.9,5%,19%[15.4 µM],?,2.7,1.4%
O=C(NCCCCO)C(F)(F)C(F)(F)C(F)(F)C(=O)NCCCCO,0.5%,-1.1,4%,0%,14%,2.1,-1.0%
CCN(C1CCS(=O)(=O)C1)S(=O)(=O)c1cccc([N+](=O)[O-])c1 (stereo unspecified),/,-2.4,9%,-13%[15.4 µM],-4%,-2.6,-0.5%
COc1cccc(C(=O)N2CCN(c3nc4cc(C)cc(C)c4cc3C#N)CC2)c1,?,-2.2,/,-13%,/,/,1.7%
COc1ccc(-c2cc(C)no2)cc1S(=O)(=O)Nc1ccc(NC(C)=O)cc1,1.0%,-5.7,1%,?,8%,/,3.0%
COc1ccc(S(=O)(=O)N(CCC(=O)O)Cc2ccccc2)cc1,-0.2%,-1.0,-5%,-8%[15.4 µM],27%,4.4,2.4%
O=C(c1ccccc1)c1sc(Nc2ccc3c(c2)OCO3)nc1-c1ccccc1,2.3%,-4.1,/,/,/,/,1.6%
O=C(Cn1nc(C(=O)O)c2ccccc2c1=O)c1c[nH]c2ccccc12,/,0.8,-16%,2%[15.4 µM],-1%,4.5,-1.7%
COc1ccc(CCN=Cc2ccc(O)cc2)cc1OC,-27%,0.7,12%,8%[15.4 µM],1%,2.2,0.1%
Cc1nnc(N2CCCC(C(=O)NCc3ccccc3F)C2)c2nn(-c3ccccc3)c(C)c12 (stereo unspecified),-25%,-3.3,-14%,?,9%,10,1.9%
COCCn1c(=O)c(-c2cn(C)c3ccccc23)nc2cnc(N3CCOCC3)nc21,/,/,/,/,31%[activator],-4.3,0.7%
COCc1[nH]nc2c1C1(CCSCC1)C(C#N)=C(N)O2,-1.2%,-1.3,-1%,-19%,10%,2.5,-0.8%[38.3 µM]
O=C1C=C(c2ccc(C(=O)O)cc2)C[C@@H](c2ccc3c(c2)OCO3)C1,-3.3%,-1.7,-22%,/,/,/,-0.3%
Cc1ccccc1OCC(=O)NCCN(C)C,-18%,-4.1,3%[15.4 µM],-31%,-4%,-0.3,0.1%
Cc1cc(-c2nnc(SCC(=O)Nc3ccc(F)cc3)n2N)n[nH]1,1.1%,-1.9,-1%,-9%,9%,/,-0.9%
CCN(CC)S(=O)(=O)c1ccc(-c2nnc(SCC(=O)c3ccc(OC)cc3)o2)cc1,0.7%,1.7,-12%,0%,-3%,3.0,6.6%[38.3 µM]

# Screens (PubChem)

# Compounds as they come. Share with any hit: about 5.1%.
